GALR2 agonist – GALR2 receptor agonists, primary screen, cell-based; activation, %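 (tested at 5 µM)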; 140,000 compounds, 0.48% hits; GALR2-expressing cells, agonist activation read-out; Galanin receptor type 2 (Homo sapiens), O43603;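 active means above mean plus 3 SD of all compounds, about 5% in these data, not always enough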;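 further: 0% = vehicle buffer wells and 100% = reference agonist at full effect; tested in CHO reporter cells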
Target sequence (O43603 whole entry, looked up): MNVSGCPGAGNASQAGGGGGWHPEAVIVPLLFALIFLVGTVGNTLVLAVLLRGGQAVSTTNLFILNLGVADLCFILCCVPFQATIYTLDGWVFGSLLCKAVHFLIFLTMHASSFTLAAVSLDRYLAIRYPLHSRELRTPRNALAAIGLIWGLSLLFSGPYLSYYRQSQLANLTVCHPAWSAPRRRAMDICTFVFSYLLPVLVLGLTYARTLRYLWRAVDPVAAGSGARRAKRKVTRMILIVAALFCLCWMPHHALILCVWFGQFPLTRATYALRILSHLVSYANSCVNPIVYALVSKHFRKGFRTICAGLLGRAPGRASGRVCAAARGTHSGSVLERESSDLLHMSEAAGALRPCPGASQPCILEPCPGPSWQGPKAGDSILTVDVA
RGS16-Gao HTS – modulators of RGS16 binding to Galphao, primary screen, biochemical, human proteins, multiplexed bead flow cytometry; bead-based flow cytometry RGS16-Galphao binding, fluorescence; actives lie on both sides; 220,000 compounds, 0.38% hits; AID 1441, 2008; Regulator of G-protein signaling 16 (Homo sapiens) + Guanine nucleotide-binding protein …; binding response (% of control), % at 10 µM;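 active means below 25% or above 175%, edge rows of some plates excepted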;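 further: Galphao activated by GDP with aluminum fluoride before binding; 100% = wells without compound and 0% = beads without RGS; some results beyond the cut were filed as inactive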
Target sequence (O15492 whole entry, looked up): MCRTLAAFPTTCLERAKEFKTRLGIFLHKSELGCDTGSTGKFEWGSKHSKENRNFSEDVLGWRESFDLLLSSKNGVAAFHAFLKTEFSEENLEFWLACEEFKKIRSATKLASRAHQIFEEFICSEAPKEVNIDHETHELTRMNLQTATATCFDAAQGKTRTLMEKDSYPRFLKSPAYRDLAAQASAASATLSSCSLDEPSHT
Target sequence (P09471 whole entry, looked up): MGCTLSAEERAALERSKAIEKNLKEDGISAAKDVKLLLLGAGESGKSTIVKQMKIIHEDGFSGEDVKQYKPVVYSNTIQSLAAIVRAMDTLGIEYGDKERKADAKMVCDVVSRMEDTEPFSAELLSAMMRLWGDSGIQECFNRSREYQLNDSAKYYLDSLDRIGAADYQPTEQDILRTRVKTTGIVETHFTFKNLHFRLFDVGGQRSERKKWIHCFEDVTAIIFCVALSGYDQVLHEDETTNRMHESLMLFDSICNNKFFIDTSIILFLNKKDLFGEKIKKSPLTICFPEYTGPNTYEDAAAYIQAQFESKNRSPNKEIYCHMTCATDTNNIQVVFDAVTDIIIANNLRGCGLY
INS promoter inh – inhibitors of insulin promoter-driven GFP, primary screen, imaging, TRM-6 cells (human fetal islet line), eGFP reporter, cell count; 130,000 compounds, 0.9% hits; reporter expression induced with tamoxifen; inhibition, % at 2 µM;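 active means inhibition above the mean plus 3 SD, with well images judged a real hit on visual review, cut at about 60% in these data, passing the limit was not always enough; inconclusive means inhibition over the cutoff but images rejected on review; inactive means inhibition not above the cutoff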
HSV augment – enhancers of HSV replication in host cells, fold increase, host cell viability | HSV replication augmentation in cells | maximum fold increase | 220,000 compounds, 0.005% hits;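 active means peak rise of 1.5-fold or more in the series; inconclusive means self-fluorescent or not available for retest; tested in PC3 cells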;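 further: first round at 10 µM; read as green reporter fluorescence; hits show the peak of a series up to 25 µM; 1 = signal of infected wells without compound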
PKD1 inh – inhibitors of human PKD1 kinase, biochemical, fluorescence polarization | Serine/threonine-protein kinase D1 (Homo sapiens), Q15139 | 200,000 compounds, 0.056% hits | inhibition, %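 (about 10 µM by stock and volumes)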 | PKD1 kinase fluorescence polarization assay;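 active means inhibition of 50% or more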;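 further: controls were vehicle for no effect and a reference inhibitor for full effect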
INS promoter inh cell count – also measured in INS promoter inh; calls as there; normalized cell count, %; measured here: cell count, toxicity; reference of the scale not given here;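 cells exposed to compound for 48 h; stained nuclei by imaging scaled within each plate; lower means fewer cells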
HSV augment primary fold – recorded beside HSV augment, whose call it bears; fold increase; compound at 10 µM; measured here: primary screen fold increase 10 uM; tested in PC3 cells;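 GFP signal in the first replicate; 1 = infected wells without compound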
* = called active by the depositor.

Screening Cn1c(=O)c2ncn(CC(=O)Nc3cc(C(F)(F)F)ccc3N3CCOCC3)c2n(C)c1=O returned GALR2 agonist -1.9, RGS16-Gao HTS 111, INS promoter inh -110, HSV augment inactive, PKD1 inh -2, INS promoter inh cell count 115 and HSV augment primary fold 1.1.
For CCOC(=O)CN1C(=O)C(C)(C)Oc2ccc(C(=O)Nc3ccccc3OC)cc21 the results were GALR2 agonist -0.8, RGS16-Gao HTS 96, INS promoter inh -55, HSV augment inactive, PKD1 inh -1, INS promoter inh cell count 129 and HSV augment primary fold 0.83.
`COc1ccc(-n2c(=O)c3c4c(sc3n3c(=S)[nH]nc23)CCC4)cc1` gave RGS16-Gao HTS 101, HSV augment inactive and HSV augment primary fold 1.1.
Screening CN1CCc2c(sc(NC(=O)c3ccc(S(=O)(=O)N4CCc5ccccc54)cc3)c2C(N)=O)C1 returned RGS16-Gao HTS 97 and HSV augment inconclusive.
COc1cccc(C2=CC(c3ccc(N(C)C)cc3)n3nnnc3N2)c1 (centres undefined) was read as GALR2 agonist -1.5, RGS16-Gao HTS 98, INS promoter inh 0, HSV augment inactive, PKD1 inh -2, INS promoter inh cell count 67 and HSV augment primary fold 1.3.
`COc1ccc(C(=O)OCC2CC(c3ccccc3)N(C)O2)cc1` (centres undefined) gave GALR2 agonist -1.3, RGS16-Gao HTS 96, INS promoter inh 37, HSV augment inactive, PKD1 inh 5, INS promoter inh cell count 119 and HSV augment primary fold 1.
Screening Cc1occc1C(=O)Nc1cccc2ccccc12 returned GALR2 agonist -0.4, RGS16-Gao HTS 90, INS promoter inh -6, HSV augment inactive, PKD1 inh -3, INS promoter inh cell count 257 and HSV augment primary fold 0.8.
For Cc1cc2ncn(N)c2cc1C the results were GALR2 agonist -0.7, RGS16-Gao HTS 106, INS promoter inh -32, HSV augment inactive, PKD1 inh -8, INS promoter inh cell count 160 and HSV augment primary fold 0.88.
`COc1ccc(C(C)=O)cc1CSc1nnc(-c2ccncc2)n1C` gave RGS16-Gao HTS 100, HSV augment inactive, PKD1 inh 0 and HSV augment primary fold 0.94.
For O=C(CSC(=S)N1CCCCC1)Nc1ncc2c(n1)CCCC2=O the results were RGS16-Gao HTS 88, HSV augment inactive and HSV augment primary fold 0.89.

Reprinted at random: 3 entries already listed, in no set order.
COc1cccc(C2=CC(c3ccc(N(C)C)cc3)n3nnnc3N2)c1 (centres undefined) was read as GALR2 agonist -1.5, RGS16-Gao HTS 98, INS promoter inh 0, HSV augment inactive, PKD1 inh -2, INS promoter inh cell count 67 and HSV augment primary fold 1.3.
`COc1ccc(C(=O)OCC2CC(c3ccccc3)N(C)O2)cc1` (centres undefined) gave GALR2 agonist -1.3, RGS16-Gao HTS 96, INS promoter inh 37, HSV augment inactive, PKD1 inh 5, INS promoter inh cell count 119 and HSV augment primary fold 1.
Screening CN1CCc2c(sc(NC(=O)c3ccc(S(=O)(=O)N4CCc5ccccc54)cc3)c2C(N)=O)C1 returned RGS16-Gao HTS 97 and HSV augment inconclusive.

Continuation:
`CS(=O)(=O)N1CCN(c2nc(-c3ccccc3)cs2)CC1` gave GALR2 agonist -0.6, RGS16-Gao HTS 117, INS promoter inh -26, HSV augment inactive, PKD1 inh -2, INS promoter inh cell count 106 and HSV augment primary fold 0.94.
CCOC(=O)CSc1nc2ccc(NC(C)=O)cc2s1 was read as GALR2 agonist -2.2, RGS16-Gao HTS 102, HSV augment inactive, PKD1 inh -3 and HSV augment primary fold 1.
For CS(=O)(=O)N(CC(=O)N1CCC(C(N)=O)CC1)C1CCCCC1 the results were GALR2 agonist 0.4, RGS16-Gao HTS 82, HSV augment inactive, PKD1 inh -9 and HSV augment primary fold 0.9.
CCC(=O)N1N=C(c2ccc(Cl)cc2)CC1c1ccco1 (centres undefined) was read as RGS16-Gao HTS 101, HSV augment inactive and HSV augment primary fold 1.1.
Cn1c(C(=O)Nc2ccc3c(c2)OCO3)cc2sccc21 was read as GALR2 agonist -0.6, RGS16-Gao HTS 97, HSV augment inactive, PKD1 inh -5 and HSV augment primary fold 0.93.
`O=C(CN1C(=O)CCC1=O)NCC12CC3CC(CC(C3)C1)C2` gave GALR2 agonist -1.2, RGS16-Gao HTS 99, INS promoter inh 30, HSV augment inactive, PKD1 inh 4, INS promoter inh cell count 109 and HSV augment primary fold 0.99.
S=C(NCCc1ccccn1)NC1CC2CCC1C2 (centres undefined) was read as RGS16-Gao HTS 95, HSV augment inactive and HSV augment primary fold 0.92.
Screening CCCCN(c1ccccc1)S(=O)(=O)c1cccc(C(=O)O)c1 returned RGS16-Gao HTS 108, INS promoter inh -13, HSV augment inactive, PKD1 inh -6, INS promoter inh cell count 122 and HSV augment primary fold 0.91.
`O=c1c2cc(NC(=S)NC3CCN(Cc4ccccc4)CC3)ccc2nc2n1CCCCC2` gave RGS16-Gao HTS 104, INS promoter inh -7, HSV augment inactive, PKD1 inh -10, INS promoter inh cell count 122 and HSV augment primary fold 0.74.
Screening O=S(=O)(N1CCOCC1)n1cnc2ccccc21 returned GALR2 agonist 0.8, RGS16-Gao HTS 105, INS promoter inh 30, HSV augment inactive, PKD1 inh 3, INS promoter inh cell count 178 and HSV augment primary fold 0.65.
O=C(NCCN1C(=O)S/C(=C\c2ccc(F)cc2)C1=O)C1CCN(S(=O)(=O)c2cccs2)CC1 was read as GALR2 agonist -2.0, RGS16-Gao HTS 107, INS promoter inh -41, HSV augment inactive, PKD1 inh 1, INS promoter inh cell count 104 and HSV augment primary fold 0.83.
CC(C)(CNC(=O)C1CCCN1C(=O)c1cccs1)N1CCOCC1 (centres undefined) was read as RGS16-Gao HTS 93, INS promoter inh 17, HSV augment inactive, PKD1 inh -4, INS promoter inh cell count 127 and HSV augment primary fold 0.98.
`CCC(=O)Nc1ccc(C(=O)N/N=C/c2ccc([N+](=O)[O-])cc2)cc1` gave GALR2 agonist -1.0, RGS16-Gao HTS 101, INS promoter inh -45, HSV augment inactive, PKD1 inh 3, INS promoter inh cell count 88 and HSV augment primary fold 1.
`CCOC(=O)CC(NC(=O)c1cc2cc(Cl)cc(Cl)c2oc1=O)c1cccc([N+](=O)[O-])c1` (centres undefined) gave GALR2 agonist -1.3, RGS16-Gao HTS 106, INS promoter inh 20, HSV augment inactive, PKD1 inh -2, INS promoter inh cell count 105 and HSV augment primary fold 1.1.
C=CCN=C1NN=C(c2cc(C)n(CC=C)c2C)CS1 was read as GALR2 agonist -0.6, RGS16-Gao HTS 92, INS promoter inh -24, HSV augment inactive, PKD1 inh -14, INS promoter inh cell count 121 and HSV augment primary fold 0.97.
Screening CN(C)C(=O)COc1ccc2ccc(=O)oc2c1 returned GALR2 agonist -2.1, RGS16-Gao HTS 109, INS promoter inh -34, HSV augment inactive, PKD1 inh 0, INS promoter inh cell count 118 and HSV augment primary fold 0.83.
Screening O=C(c1ccc(F)cc1)N1CCN(c2cc(N3CCCCC3)c(F)cc2[N+](=O)[O-])CC1 returned GALR2 agonist -1.7, RGS16-Gao HTS 100, INS promoter inh 36, HSV augment inactive, PKD1 inh -2, INS promoter inh cell count 93 and HSV augment primary fold 1.1.
CCCOc1cc(CN2CCCCC2)cc(C(C)=O)c1 was read as GALR2 agonist -1.8, RGS16-Gao HTS 108, INS promoter inh -29, HSV augment inactive, PKD1 inh 0, INS promoter inh cell count 76 and HSV augment primary fold 1.
Clc1ccc(-n2cccc2CN2CCc3c([nH]c4ccccc34)C2c2ccccn2)nc1 (centres undefined) was read as RGS16-Gao HTS 111, HSV augment inactive, PKD1 inh 3 and HSV augment primary fold 0.91.
Cc1cccc(NC(=O)CCNC(=O)c2ccco2)c1 was read as GALR2 agonist 0.0, RGS16-Gao HTS 104, INS promoter inh -43, HSV augment inactive, PKD1 inh 4, INS promoter inh cell count 109 and HSV augment primary fold 1.1.
For O=C(NCCCc1ccccc1)c1ccccc1 the results were GALR2 agonist -0.9, RGS16-Gao HTS 103, INS promoter inh 16, HSV augment inactive, PKD1 inh -2, INS promoter inh cell count 156 and HSV augment primary fold 1.
`O=C(CN1CCCCC1)N1N=C(c2cccs2)CC1c1cccs1` (centres undefined) gave RGS16-Gao HTS 98, HSV augment inactive, PKD1 inh 0 and HSV augment primary fold 1.
`CCOC(=O)C1=C(C)NC(C)=C(C(=O)OCC)C1c1sccc1C` gave GALR2 agonist -1.2, RGS16-Gao HTS 98, HSV augment inactive, PKD1 inh -1 and HSV augment primary fold 0.91.
Screening COc1ccc(NC(=O)C2CCN(S(=O)(=O)c3cccc4cccnc34)CC2)cc1OC returned GALR2 agonist -2.0, RGS16-Gao HTS 104 and PKD1 inh -4.
CC1=C(/C=C/C(C)=N\NC(=O)c2ccncc2)C(C)(C)CCC1 was read as RGS16-Gao HTS 101, INS promoter inh -17, HSV augment inactive, PKD1 inh -1, INS promoter inh cell count 63 and HSV augment primary fold 0.94.
For COC(=O)Nc1ccc(S(=O)(=O)N2CCCC(C(=O)NC3CCS(=O)(=O)C3)C2)cc1 (centres undefined) the results were GALR2 agonist -1.6, RGS16-Gao HTS 108, INS promoter inh 35, HSV augment inactive, PKD1 inh 10, INS promoter inh cell count 87 and HSV augment primary fold 0.9.
`Cc1ccc(CNC(=O)CSCc2ccccc2F)cc1` gave RGS16-Gao HTS 103, INS promoter inh 33, HSV augment inactive, PKD1 inh -10, INS promoter inh cell count 106 and HSV augment primary fold 0.95.
For O=S(=O)(c1ccc(N2CCN(S(=O)(=O)c3ccccc3)CC2)nc1)N1CCCC1 the results were RGS16-Gao HTS 96, INS promoter inh 28, HSV augment inactive, PKD1 inh -3, INS promoter inh cell count 82 and HSV augment primary fold 0.99.
Screening O=C(CN1CCN(C(=O)C2COc3ccccc3O2)CC1)Nc1ccc(F)cc1 (centres undefined) returned RGS16-Gao HTS 106, HSV augment inactive and HSV augment primary fold 0.93.
O=CN1CCN(C(C(=O)NC2CCCC2)c2cc3c(cc2[N+](=O)[O-])OCO3)CC1 (centres undefined) was read as RGS16-Gao HTS 103, HSV augment inactive, PKD1 inh -1 and HSV augment primary fold 0.96.

The list goes on, overlapping the part above by 2 compounds.
Screening O=C(CN1CCN(C(=O)C2COc3ccccc3O2)CC1)Nc1ccc(F)cc1 (centres undefined) returned RGS16-Gao HTS 106, HSV augment inactive and HSV augment primary fold 0.93.
O=CN1CCN(C(C(=O)NC2CCCC2)c2cc3c(cc2[N+](=O)[O-])OCO3)CC1 (centres undefined) was read as RGS16-Gao HTS 103, HSV augment inactive, PKD1 inh -1 and HSV augment primary fold 0.96.
Screening COc1ccc(-c2csc(N(CC3CCCO3)C(=O)c3ccco3)n2)cc1 (centres undefined) returned GALR2 agonist -2.3, RGS16-Gao HTS 108, HSV augment inactive, PKD1 inh 5 and HSV augment primary fold 0.79.
For COc1cc(OC)c(OC)cc1/C=N/N(C)c1ccccc1 the results were GALR2 agonist -1.4, RGS16-Gao HTS 148, INS promoter inh -21, HSV augment inactive, PKD1 inh -3, INS promoter inh cell count 106 and HSV augment primary fold 0.98.
For Cc1cc(C)n(-c2nnc(N3CCN(c4ccccc4)CC3)nn2)n1 the results were RGS16-Gao HTS 83, HSV augment inactive, PKD1 inh 1 and HSV augment primary fold 0.92.
`S=C1N[C@H]2CCCC[C@@H]2N1` gave RGS16-Gao HTS 97, HSV augment inactive and HSV augment primary fold 0.99.
For Cc1nn(-c2ncc(C(F)(F)F)cc2Cl)c(=O)n1-c1cccc(F)c1 the results were RGS16-Gao HTS 109, HSV augment inactive, PKD1 inh -3 and HSV augment primary fold 0.9.
Screening COc1ccc(O[C@H]2C=C[C@@H](c3ccccc3)O[C@@H]2COC(=O)CC/C(C)=N/OC[C@@H](O)COCc2ccco2)cc1 returned GALR2 agonist -0.8, RGS16-Gao HTS 101, INS promoter inh -29, PKD1 inh -10 and INS promoter inh cell count 87.
For S=C(Nc1cccc(Cl)c1)Nc1ccccc1Oc1ccccc1 the results were GALR2 agonist -4.5, RGS16-Gao HTS 108, INS promoter inh -50, HSV augment inactive, PKD1 inh -9, INS promoter inh cell count 79 and HSV augment primary fold 0.92.
Screening CC(=O)Nc1nc(C=C(Cl)Cl)cs1 returned GALR2 agonist -0.3, RGS16-Gao HTS 99, INS promoter inh 5, HSV augment inactive, PKD1 inh -8, INS promoter inh cell count 111 and HSV augment primary fold 0.97.
CCc1ccc(N(C(=O)c2csnn2)C(C(=O)NC(C)(C)CC)c2cccnc2)cc1 (centres undefined) was read as RGS16-Gao HTS 101, HSV augment inactive, PKD1 inh -3 and HSV augment primary fold 0.99.

Assay outcomes deposited in PubChem BioAssay by several laboratories.
